From PubChem BioAssay
VDR inhibitor – inhibitors of human vitamin D receptor. AID 504847. P11473. Potency, µM, inactives show max response, negative = inhibition, most hits filed as inhibitors. VDR-SRC2-3 peptide fluorescence polarization, 2 h. hit rate 0.93% among 400,000; active = well fitted inhibition curve with a large enough effect; inconclusive = small, poorly fitted or top-dose-only effect, or another doubt; inactive = no such curve, though single readings can be large or run the other way; also: series mostly up to about 120 µM
Target sequence (P11473 whole entry, looked up): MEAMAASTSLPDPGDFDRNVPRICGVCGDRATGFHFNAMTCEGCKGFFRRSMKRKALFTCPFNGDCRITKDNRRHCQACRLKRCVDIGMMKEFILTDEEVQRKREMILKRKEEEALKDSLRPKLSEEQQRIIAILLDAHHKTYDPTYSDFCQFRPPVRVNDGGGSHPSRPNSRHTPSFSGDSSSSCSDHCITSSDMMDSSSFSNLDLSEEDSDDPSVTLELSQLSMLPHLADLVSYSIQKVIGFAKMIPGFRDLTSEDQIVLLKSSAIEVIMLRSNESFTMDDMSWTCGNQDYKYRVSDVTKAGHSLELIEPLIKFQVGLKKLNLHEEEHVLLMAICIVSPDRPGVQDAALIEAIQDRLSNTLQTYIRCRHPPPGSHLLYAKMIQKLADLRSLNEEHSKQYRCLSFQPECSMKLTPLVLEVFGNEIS
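Reagent solutions, kept cold and dark, are dispensed first; compounds are then pinned in at 23 nl, plates briefly spun, and incubated 2 h at ambient temperature. Inhibition of VDR–SRC2-3 peptide binding is read by fluorescence polarization.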
* = called active by the depositor; ? = inconclusive; & = joins results of further samples. % is scaled to controls: 0 for no effect and ±100 for the full control effect; potency is read from the fitted curve at half-maximal effect.

SMILES | VDR inhibitor
NC(=O)c1ccc(NC(=O)CSc2nnc(C3CC3)n2C2CC2)cc1 | 0.5%
O=C(N/N=C1/C(=O)c2cccc3cccc1c23)c1ccc(Cl)cc1 | 4.5%
COc1ccccc1OCC(=O)n1cc(C(=O)c2cc(Cl)cc(Cl)c2O)cn1 | -7.4%
CCNC(=O)/C(C#N)=C/c1c(N2CCN(c3ccc(OC)cc3)CC2)nc2c(C)cccn2c1=O | ?
CC(C)C(OC(=O)C1=Cc2ccccc2OC1)C(=O)NC1CCCC1 (stereo not given) | 8.4%
CO/N=C/Cc1c([N+](=O)[O-])c(C)nn1C | -3.9%
Cc1ccc(-c2cc(-c3ccccc3)c(C#N)c(Br)n2)cc1 | -15.9%
Cc1ccc(C)c(S(=O)(=O)N2CCCC2CNC(=O)C(=O)NC2CCCCCC2)c1 (stereo not given) | -4.6%
CCSc1nc2ccccc2n1CCC(=O)O | -5.4%
CN1CCN(C(=S)c2ccc(-c3cc(Cl)ccc3Cl)o2)CC1 | -29.3%
O=C(NCCc1ccc(Cl)cc1)c1ccc(CSCc2cccc(Cl)c2)o1 | 4.9%
CCC(C)(C)C(=O)Nc1cc([N+](=O)[O-])ccc1F | -6.7%

Reprinted from the part before: three entries; new compounds follow.
SMILES | VDR inhibitor
CN1CCN(C(=S)c2ccc(-c3cc(Cl)ccc3Cl)o2)CC1 | -29.3%
O=C(NCCc1ccc(Cl)cc1)c1ccc(CSCc2cccc(Cl)c2)o1 | 4.9%
CCC(C)(C)C(=O)Nc1cc([N+](=O)[O-])ccc1F | -6.7%
CCOC(=O)C1CCCN(C(=O)CSc2nnnn2C)C1 (stereo not given) | -7.1%
CC(C)c1nc(Cl)c(C#N)c2c1COC(C)(C)C2 | 7.5%
Cc1c(NS(=O)(=O)c2cccc(C(=O)NCc3ccncc3)c2)c(=O)n(-c2ccccc2)n1C | 4.1%
Cc1nc(NC(=O)c2cccnc2Cl)sc1C | -4.6%
CCOC(=O)c1c(NC(C)=O)c2c3c(sc2n1Cc1nc(-c2ccc(Cl)cc2)oc1C)CCCC3 | 0.1%
Cc1cc(NC(=O)CSCC(=O)N2CCN(c3ccccc3)CC2)no1 | -14.1%
Cc1cc(N)ccc1-c1cc2ccccc2oc1=O | 17.8%
O=C(CNC1CCCCC1)Nc1ccc(Cl)cc1 | -14.0%
CN(C)S(=O)(=O)c1ccc2oc(SCC(=O)NCC(F)(F)F)nc2c1 | 5.1%
CCCC(=O)Nc1ccc(-c2ccc(NC(=O)CCC)cc2)cc1 | 0.8%
COc1ccc(N(C)S(=O)(=O)c2cccc(C(=O)OC(C)C(=O)NC3CCCCC3C)c2)cc1 (stereo not given) | 2.6%
COc1ccccc1CCNC(=O)CCn1c(=O)c2cccn2c2ccc(F)cc21 | 15.8%&-6.5%
Cc1csc2ncc(C(=O)NCc3ccco3)c(=O)n12 | 7.7%
COc1cccc(CN2c3ccccc3-c3nc(SCC(=O)Nc4cccc(C)c4)ncc3S2(=O)=O)c1 | -23.8%
Cn1c(=O)c2sccc2n2c(CCC(=O)NCc3ccc(Cl)cc3)nnc12 | -3.0%
Cc1cc([N+](=O)[O-])ccc1NC(=O)C(C)N1CCN(c2ccccn2)CC1 (stereo not given) | -16.5%
CCc1nc2ccccc2c(C(=O)OCC(=O)N2CC(C)OC(C)C2)c1C (stereo not given) | 5.5%
O=C1CC(c2ccco2)Cc2nc(Nc3ccc(F)cc3)ncc21 (stereo not given) | -1.3%
COc1ccc(NC(=O)C2=C(C)Nc3nc(SC)nn3C2c2cc(OC)ccc2OC)cc1 (stereo not given) | 2.1%
O=C(CCc1ccccc1)NNC(=O)c1ccccc1Br | -9.1%
COc1ccc(-c2cc(=O)oc3c(C)c(OCC(=O)NCCCn4ccnc4)ccc23)cc1 | 9.3%
CC(C)CN(C(=O)CCCOc1ccc(Cl)cc1Cl)c1c(N)n(Cc2ccccc2)c(=O)[nH]c1=O | 16.2%
O=c1cc(NCc2ccc3c(c2)OCO3)[nH]c(=O)n1-c1ccc(Cl)cc1 | -6.7%
CC(/C=N/n1c(-c2ccccn2)n[nH]c1=S)=C\c1ccccc1 | 6.8%
COc1ccc(OC)c(N(CC(=O)N2CCN(c3cc(Cl)ccc3C)CC2)S(C)(=O)=O)c1 | 3.8%
Cc1cccc(OCC(O)CN2CC3(C)CC2CC(C)(C)C3)c1 (stereo not given) | 15.8%
CC(C)(C)c1ccc(C(=O)NCCC(=O)N2CCCC2)cc1 | 15.6%
C=C(C)Cn1c(N2CCCC2)nc2c1c(=O)n(C)c(=O)n2C | 24.2%
COc1cc2cc(CN(C(=O)NC3CCCCC3)C3CCCC3)c(=O)[nH]c2cc1OC | 13.6%
CCOC(=O)Cn1c2[n+](c3ccccc31)CC(O)CS2 (stereo not given) | -9.3%
CCN(CC)S(=O)(=O)c1ccc(OC)c(NC(=O)c2cccs2)c1 | -25.5%
O=C(CNc1ccccc1F)Nc1cccc2ccccc12 | 27.6%
CCOC(=O)CSc1nc2cc(C(=O)NCc3ccco3)ccc2c(=O)n1-c1ccc(F)cc1 | 14.0%
CC(C)CCNC(=O)C1c2ccccc2Oc2ccccc21 | 4.0%
O=C(N/N=C/c1ccc(OCC(=O)N2CCCC2)cc1)C(=O)NC1CC1 | 11.3%
O=C(C/C=N\OCc1c(Cl)cccc1Cl)Oc1ccc(Cl)cc1Cl | 16.2%
N#C/C(=C\c1ccncc1)c1nc2ccccc2c(=O)[nH]1 | -11.2%
CCOC(=O)C1CCCN(Cc2ccc(OC)c(OCc3ccccc3)c2)C1 (stereo not given) | -15.0%
Cc1ccccc1C(=O)NCC(=O)OC(C)C(=O)Nc1ccnn1C(C)C (stereo not given) | -18.0%
COC(=O)C1(Cc2ccc(O)cc2)OC(=O)C(O)=C1c1ccc(O)cc1 (stereo not given) | -0.3%
Cc1ccc(Cl)cc1NC(=O)CSc1nncn1-c1ccccn1 | ?
CCCC(CCC)C(=O)Nc1cccc(C(=O)O)c1 | -4.0%
CCn1ncc(C2=NOC(C(=O)Nc3cccc(O)c3)C2)c1C (stereo not given) | 2.0%
Cc1ccc(NC(=O)CCC(=O)N/N=C/c2coc3ccccc3c2=O)cc1 | -12.4%
Cc1cc(-c2ccc(S(=O)(=O)Nc3cccc(C(F)(F)F)c3)s2)on1 | -3.9%
CCCC(=O)Nc1ccc(Nc2ccccc2)cc1 | -19.7%
O=C(Nc1nnc(S(=O)(=O)N2CCCCCC2)s1)c1ccccc1 | 12.9%&4.7%
COc1ccccc1N(CC(=O)Nc1ccccc1C)S(C)(=O)=O | -3.2%
COc1ccc(C(CNC(=O)c2ccc(Cl)c(NC(=O)c3cccs3)c2)N2CCCC2)cc1 (stereo not given) | -3.7%
CC(C)c1ccc(NC2CCCN(C(=O)c3ccc(Cn4cnnn4)cc3)C2)cc1 (stereo not given) | -19.7%
Fc1ccccc1N1CCN(CC2CC3C=CC2C3)CC1 (stereo not given) | 7.4%
CN1C(=O)c2ccccc2C(C(=O)O)C1c1cccc(F)c1 (stereo not given) | 4.4%
O=C(Nc1ccc(OC(F)(F)F)cc1)C1CCCN(C(=O)c2ccc(Cl)cc2)C1 (stereo not given) | 16.0%
CCCc1cc(=O)[nH]c(SCC(=O)Nc2nc3ccc(OCC)cc3s2)n1 | 3.2%
c1ccc(-c2cc(-c3ccccc3)[nH]n2)cc1 | -4.4%
CNS(=O)(=O)c1cc(NC(=O)c2cnc(SC)n2-c2ccccc2)ccc1C | -7.2%
O=C(NCCCN1CCCCC1)C1(S(=O)(=O)c2ccc(Cl)cc2)CC1 | 8.0%
COc1cccc(Cn2c(=O)c(-c3cccs3)nc3cncnc32)c1 | 7.1%
C[n+]1ccn(CC(=O)c2cc(C(C)(C)C)c(O)c(C(C)(C)C)c2)c1 | -6.3%
CN(C)c1cccc(C(=O)N2CCC(c3ccncc3)CC2)c1 | 11.8%
Later entries
SMILES | VDR inhibitor
O=C(/C=C/c1ccccc1)Nc1nc2n(n1)C(c1ccc(F)cc1)C=C(c1ccccc1)N2 (stereo not given) | 11.8%
Cc1cc(C)n(-c2ccc(C(=O)Nc3nnc(C)s3)cc2)n1 | -6.4%
CCCn1c(N)c(N(CCOC)C(=O)/C=C/c2cccc(Cl)c2)c(=O)[nH]c1=O | 2.5%
Cc1cc(OCC(=O)NCc2ccccn2)c2c(C)c(C)c(=O)oc2c1 | -20.7%
COCCNC(=O)C1CC(=O)N(C2CCCCC2)C1 (stereo not given) | 7.3%
Cn1c(-c2ccc3c(c2)OCO3)cc(=O)c2ccccc21 | -22.4%&4.3%
CCCCCn1c(=N)c(S(=O)(=O)c2ccc(Br)cc2)cc2c(=O)n3cccc(C)c3nc21 | -0.3%
Cc1cc(-c2ccccc2)nc(=O)[nH]1 | 4.0%
CCOC(=O)c1ccc(NC(=O)N2CCOCC2)cc1 | -0.8%
CCOC(=O)N1CCN(S(=O)(=O)c2ccc(C(=O)Nc3sc4c(c3C(=O)OC)CCN(C)C4)cc2)CC1 | 6.6%
CN(Cc1c(F)cccc1Cl)C(=O)c1cc2ccccc2o1 | -12.7%
COCCCNc1nc2nonc2nc1N1CCN(Cc2cccc(C)c2)CC1 | 5.6%
COc1ccc(N(Cc2ccccc2)S(=O)(=O)c2cccc(C(=O)O)c2)cc1 | -17.7%
COc1ccc(NC(=O)[C@@H]2CCCN2C(=O)[C@@H]2Cc3ccccc3CN2C(=O)OC(C)(C)C)cc1 | 12.4%
O=C(/C=C/Nc1ccccc1)c1cnc(-c2ccccc2)s1 | 5.2%
COc1ccc(NC(=O)C2CC(c3cccc(Br)c3)=NO2)cc1OC (stereo not given) | -5.6%
O=c1c(Cl)c(NCCO)cnn1-c1cccc(Cl)c1 | 10.0%
CCCS(=O)(=O)N1CCCC(C(=O)Oc2ccc(C)c(C)c2)C1 (stereo not given) | 12.2%
COc1ccccc1N1C(=O)c2ccc(C(=O)Nc3cccc(C(C)=O)c3)cc2C1=O | 21.8%
CCCOc1ccccc1OCC(=O)Nc1ccc(S(=O)(=O)N2CCCCC2)cc1 | -4.3%
CCCNC(=O)c1cc2c(C(F)(F)F)nn(C)c2s1 | 3.9%
Cc1ccc(-c2cc(C(=O)N3CCOCC3)c3cc(C)ccc3n2)cc1 | 12.7%
CCOC(=S)SCc1cn2ccc(C)cc2n1 | ?
CCC(=O)c1ccc(OCC(=O)N(CC)CC(=O)Nc2ccccc2OC)cc1 | -20.5%

Single entries from the entries so far:
`COc1ccc(NC(=O)[C@@H]2CCCN2C(=O)[C@@H]2Cc3ccccc3CN2C(=O)OC(C)(C)C)cc1` | VDR inhibitor = 12.4%
`COc1ccccc1N1C(=O)c2ccc(C(=O)Nc3cccc(C(C)=O)c3)cc2C1=O` | VDR inhibitor = 21.8%
`COc1ccc(NC(=O)C2CC(c3cccc(Br)c3)=NO2)cc1OC` (stereo not given) | VDR inhibitor = -5.6%
`CCCS(=O)(=O)N1CCCC(C(=O)Oc2ccc(C)c(C)c2)C1` (stereo not given) | VDR inhibitor = 12.2%
`CCCOc1ccccc1OCC(=O)Nc1ccc(S(=O)(=O)N2CCCCC2)cc1` | VDR inhibitor = -4.3%
`O=c1c(Cl)c(NCCO)cnn1-c1cccc(Cl)c1` | VDR inhibitor = 10.0%

(list continues)
SMILES | VDR inhibitor
O=C(NNC(=O)c1ccc(-c2ccccc2)cc1)c1ccccc1 | 2.0%
COc1ccc(NC(=O)CN(C)S(=O)(=O)c2cccs2)cc1 | 14.2%
COc1ccc(NC(=O)c2ccccn2)cc1OC | 7.8%
O=C(CNCC1CCCO1)N1CCCCCC1 (stereo not given) | 3.5%
CCCCN(CCCNC(=O)Cn1ncc2ccsc2c1=O)Cc1ccccc1 | 0.7%
COC(=O)c1ccc2c(=O)n(Cc3ccco3)c(SCC(=O)Nc3cc(C)on3)nc2c1 | 23.9%
CCOCCCNC(=O)C(NC(=O)Cc1cccs1)c1ccc(Cl)cc1 (stereo not given) | -28.9%
CCc1cccc(NC2c3ccccc3C(=O)N2c2cccnc2)c1 (stereo not given) | ?
CCN(CC)S(=O)(=O)c1cccc(C(=O)Oc2cccnc2)c1 | 1.1%
CC(C)CC(=O)NC(=S)Nc1ccc(N2CCOCC2)c(Cl)c1 | -1.6%
COc1ccc(OC)c(CCNC(=O)c2cnn(-c3ccccc3Cl)c2C2CCN(C(=O)OC(C)(C)C)CC2)c1 | 17.7%
CCOC(=O)N1CCC(Nc2c(N3CCN(c4cc(Cl)ccc4C)CC3)c(=O)c2=O)CC1 | 3.4%
O=C(NC1CCCC1)C(c1ccccc1)N(Cc1ccccc1)C(=O)c1csnn1 (stereo not given) | 0.3%
CCOC(=O)c1c(S(=O)(=O)N2CCC(C(=O)NCc3cccc(C)c3)CC2)c(C)n(C)c1C | 7.1%
COc1ccc(OC)c(S(=O)(=O)N2CCC3(CC2)OCCN3S(=O)(=O)c2ccccc2)c1 | -4.8%
COc1ccc(CCNC(=O)Cc2ccc(NS(=O)(=O)c3ccc(F)cc3)cc2)cc1OC | -9.6%
COc1ccc(-c2ccc(SCC(=O)NCc3ccc4c(c3)OCO4)nn2)cc1OC | -1.1%
O=C(Nc1ccccc1)N1N=C(c2cccs2)CC1c1cccs1 (stereo not given) | 10.1%
CC(C)=CCc1c(C)nc2ccccc2c1C(=O)O | 5.9%
Cn1nc(C(F)(F)F)c(-c2ccccc2)c1NC(=O)c1nccnc1C(=O)O | -17.5%
C[C@@H](C(=O)Nc1ccc2ccccc2c1)[C@@H]1C[C@@]1(C)[C@@H](NC(=O)c1cccnc1)c1ccccc1 | -6.5%
COc1ccc(N2CCN(C(=O)COc3ccc4c(C)cc(=O)oc4c3)CC2)cc1 | 6.7%
O=C1CC(c2ccccc2)CC(O)=C1C=Nc1ccccc1Cl (stereo not given) | -18.0%
Cc1cc(C(=O)NCc2cccs2)c(C)o1 | ?
CCN(Cc1ccccc1)C(=O)Cn1c(=O)n(-c2ccc(F)c(Cl)c2)c(=O)c2sc3ccccc3c21 | -2.1%

Filtered by structure, the entries above containing a nitro group on carbon
SMILES | VDR inhibitor
CO/N=C/Cc1c([N+](=O)[O-])c(C)nn1C | -3.9%
CCC(C)(C)C(=O)Nc1cc([N+](=O)[O-])ccc1F | -6.7%
Cc1cc([N+](=O)[O-])ccc1NC(=O)C(C)N1CCN(c2ccccn2)CC1 (stereo not given) | -16.5%

The list is partial, so the mix of outcomes need not match the whole.
